Source: PubChem
E coli growth: E. coli growth inhibition, primary screen, OD600. Escherichia coli growth, 23 h; stronger effect = lower value. OD600 absorbance (test concentration not listed). hit rate 0.21% among 330,000. AID 1053175, 2014;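 active means OD600 absorbance below the run mean of sample wells minus 3.6 SD, in any replicate, cut at about 0.56 in these data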;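 further: stock transfer was 300 nL into about 60 µL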
UCH37 DUB inh: inhibitors of human UCH37 deubiquitinase, primary screen, biochemical, Ub-AMC cleavage, fluorescence. hit rate 0.33% among 330,000. purified proteasome/UCH37. AID 588478, 2011. inhibition, % (no concentration beside the values);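 active means mean of two replicates above 20%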;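 further: 0% = compound-free wells with enzyme and 100% = wells lacking proteasome; stock transfer was 100 nL into about 20 µL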
Target sequence (Q9Y5K5 whole entry, looked up): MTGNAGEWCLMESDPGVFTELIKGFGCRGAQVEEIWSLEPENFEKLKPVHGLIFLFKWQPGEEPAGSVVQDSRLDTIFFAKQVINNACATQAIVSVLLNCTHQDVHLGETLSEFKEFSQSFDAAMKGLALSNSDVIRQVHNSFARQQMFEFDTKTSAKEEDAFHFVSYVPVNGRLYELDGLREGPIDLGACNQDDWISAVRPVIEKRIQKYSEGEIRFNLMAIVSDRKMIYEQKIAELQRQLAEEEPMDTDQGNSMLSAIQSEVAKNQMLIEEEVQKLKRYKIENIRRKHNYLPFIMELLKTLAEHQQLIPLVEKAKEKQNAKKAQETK
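assay system = human UCH37 enzyme supplied as purified proteasome complex | amount = proteasome at 0.15 nM in the dispensed enzyme solution | schedule = 30 min compound-proteasome preincubation then 25 min substrate reaction, room temperature | measured by = fluorescence, ex 355 nm, em 460 nm | benchmarks = no-proteasome wells (full inhibition) and compound-free wells (no inhibition)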
Vif A3G: inhibitors of Vif binding to APOBEC3G peptide, primary screen, biochemical, TR-FRET, GST-Vif 1-94, biotin-A3G peptide, dose response retest (AID 1117319). Virion infectivity factor (Human immunodeficiency virus type 1 group M subtype B (isolate …. TR-FRET GST-Vif / biotin-A3G peptide binding; higher % means a stronger effect; test concentration not given here; strong numbers were not always called active. inhibition, %; hits with a dose series show IC50 in µM. hit rate 0.57% among 260,000;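 active means above the screen mean plus three standard deviations and confirmed in dose response; inconclusive means results disagree or hit not tested in dose response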;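 further: Vif residues 1-94 fused to GST binding biotinylated APOBEC3G peptide 110-148; 0% = full assay without inhibitor and 100% = GST in place of GST-Vif; retest series ran down from 100 µM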
MLL AF4-AF9 inh: inhibitors of AF4 peptide binding to AF9, primary screen, biochemical, AlphaScreen, biotin-AF4 peptide, FLAG-AF9, single point; Protein AF-9 (Homo sapiens), P42568; inhibition, % at 10 µM; hit rate 0.47% among 350,000;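 active means every replicate reaching a set inhibition limit, whatever the replicate mean, cut at about 25% in these data; inconclusive means mean inhibition reaches that limit but some replicates miss it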;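 further: 0% = plate neutral control median and 100% = total signal loss; the record names both 10 and 1 µM as test concentration; the first replicate is given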
RanGTP-Impb inh: inhibitors of RanGTP-importin-beta interaction, primary screen, biochemical, FRET, CFP-Ran, YFP-importin-beta, homogeneous | Ran GTPase (GTP-bound) - importin-beta complex | cell-free CFP-Ran/YFP-importin-beta FRET ratio | inhibition, % (no concentration beside the values) | hit rate 1.1% among 300,000;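 active means most replicates above 15%; inconclusive means exactly half above 15%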;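 further: 0% = DMSO wells and 100% = Ran loaded with GDP instead of GTP; wells of about 40 µL received 100 nL stock; the first replicate is given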
HNF4A DNA FP: change in binding of human HNF4A to DNA, primary screen, biochemical, fluorescence polarization, FITC-DNA. hit rate 0.3% among 360,000. activity change, % at 10 µM. Hepatocyte nuclear factor 4-alpha (Homo sapiens), P41235. 1 h; in the data active means activity change above about 30%, passing the limit was not always enough;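 further: controls were the assay level and a saturating level of protein; the project sought stronger binding though the title names inhibitors; some compounds called inactive have numbers as strong as hits; positive values seem to mean higher polarization but the record does not say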
Target sequence (P41235 whole entry, looked up): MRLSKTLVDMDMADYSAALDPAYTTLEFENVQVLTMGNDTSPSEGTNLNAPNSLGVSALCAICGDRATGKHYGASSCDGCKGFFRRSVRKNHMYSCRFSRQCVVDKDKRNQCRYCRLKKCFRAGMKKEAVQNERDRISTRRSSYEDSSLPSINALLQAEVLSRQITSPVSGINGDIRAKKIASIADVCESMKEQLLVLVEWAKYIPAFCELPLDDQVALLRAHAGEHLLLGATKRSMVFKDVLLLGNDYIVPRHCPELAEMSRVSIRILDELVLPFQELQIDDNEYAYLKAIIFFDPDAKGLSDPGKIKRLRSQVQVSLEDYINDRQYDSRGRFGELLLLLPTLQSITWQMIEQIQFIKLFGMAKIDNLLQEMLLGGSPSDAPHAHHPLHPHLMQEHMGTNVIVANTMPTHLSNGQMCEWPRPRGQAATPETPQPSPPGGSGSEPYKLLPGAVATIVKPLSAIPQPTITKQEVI
FGF22 binding: binders of human FGF22 protein, primary screen, FGF22 synaptogenesis inhibitor project, biophysical, thermal shift, single point. calls only at 9.99 µM. AID 651658, 2012. hit rate 1.5% among 340,000. recombinant FGF22 thermal shift, SYPRO orange fluorescence; percent of sucrose octasulfate shift, DMSO zero. Fibroblast growth factor 22 (Homo sapiens), Q9HCT0;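 active means melting point raised past a set limit in the mean and every replicate; inconclusive means no clear call; three in four hits are not shown here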
Target sequence (Q9HCT0 whole entry, looked up): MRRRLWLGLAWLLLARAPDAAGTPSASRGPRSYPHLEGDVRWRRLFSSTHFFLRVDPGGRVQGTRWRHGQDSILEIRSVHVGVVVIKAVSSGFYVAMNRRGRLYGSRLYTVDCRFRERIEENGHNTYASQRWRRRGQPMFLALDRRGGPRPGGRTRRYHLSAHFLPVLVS
The depositor's hits bear a star; i = inactive; ? = inconclusive; · = not tested or not shown.

SMILES	E coli growth	UCH37 DUB inh	Vif A3G	MLL AF4-AF9 inh	RanGTP-Impb inh	HNF4A DNA FP	FGF22 binding
COc1ccc(C(C(=O)NC2CCCCC2)N(Cc2ccco2)C(=O)c2ccccn2)c(OC)c1 (centres undefined)	0.7	1.5	·	1.1	-2.9	0.9	i
COCc1[nH][nH]c(=O)c1C=Nc1ccccc1	0.68	10	8%	·	0.8	-2.3	·
N#Cc1ccc(NC(=O)Cn2cnc(S(=O)(=O)N3CCOCC3)c2)cc1	0.67	0.8	9%	·	-0.3	4.0	·
O=C(CN1C(=O)C2C3C=CC(C3)C2C1=O)NCCC1=CCCCC1 (centres undefined)	0.78	-4.5	-1%	·	3.1	1.9	·
O=C(NCc1cccc(C(F)(F)F)c1)c1csc([C@@H]2C[C@H](O)[C@@H](CO)O2)n1	·	·	·	0.9	·	-0.6	i
Cc1ccc(NC(=O)COC(=O)CNC(=O)c2ccc(Cl)cc2Cl)cc1S(=O)(=O)N1CCOCC1	0.66	5.2	0%	-1.7	-18	0.4	i
CC(=NNc1ccc([N+](=O)[O-])cn1)c1ccccc1	0.69	0.9	0%	9.1	·	-4.2	i
CCCCCCc1cc2cc(-c3nnc(-c4ccccc4OC)o3)c(=O)oc2cc1O	·	·	5%	·	136*	88	·
COc1ccccc1CNc1cc(-c2ccccc2)ccc1OC	0.67	-8.9	?	·	-0.2	-0.3	·
COc1ccc(C(C)NC(=O)c2ccc(Br)cc2)cc1OC (centres undefined)	0.7	3.7	2%	2.3	0.1	1.5	i
CCC(C)c1ccc(NC(=O)C2CCN(c3ccc(C(F)(F)F)cn3)CC2)cc1 (centres undefined)	0.72	5.3	21%	·	4.7	3.5	·
C=CCNC(=O)CN1c2cccc3cccc(c23)S1(=O)=O	0.64	-63	-2%	-0.4	3.0	3.1	i
CN(Cc1c(F)cccc1Cl)C(=O)C1CC(=O)N(CCc2ccccc2)C1 (centres undefined)	0.74	-1.6	8%	-2.3	-4.3	3.3	i
CSCCC(N=C(NS(=O)(=O)c1ccccc1)c1ccccc1)C(=O)O (centres undefined)	0.69	3.9	-5%	1.9	2.5	-3.8	i
CCOC(=O)c1sc2nc3n(c(=O)c2c1C)CCC3	0.63	-0.6	-5%	-1.4	-4.7	2.7	i
CC(C)NC(=O)COC(=O)c1ccc(S(=O)(=O)N2CCCC2)cc1	0.65	2.6	2%	0.2	-0.1	1.9	i
O=S1(=O)CCOC[C@H](CC2CCCCC2)N1Cc1cccc(F)c1	·	1.6	·	-2.4	-1.1	-6.3	i
CCc1ccccc1NS(=O)(=O)c1cc2c(cc1C)n(C)c(=O)c(=O)n2C	0.74	5.7	·	-3.5	-2.4	-1.2	i
CCOC(=O)C1=C(c2ccccc2)OC(N)=C(C#N)C1c1ccc(Br)s1 (centres undefined)	0.74	0.8	-1%	·	5.4	5.1	·
O=C(CN(CC1CCCO1)C(=O)CNS(=O)(=O)c1ccc(Cl)cc1)NCC1CCCO1 (centres undefined)	0.66	-1.8	6%	·	0.4	5.8	·

Some values from the entries so far:
COc1ccccc1CNc1cc(-c2ccccc2)ccc1OC @ E coli growth: 0.67
CN(Cc1c(F)cccc1Cl)C(=O)C1CC(=O)N(CCc2ccccc2)C1 (centres undefined) @ Vif A3G: 8%
O=C(NCc1cccc(C(F)(F)F)c1)c1csc([C@@H]2C[C@H](O)[C@@H](CO)O2)n1 @ HNF4A DNA FP: -0.6
O=C(CN(CC1CCCO1)C(=O)CNS(=O)(=O)c1ccc(Cl)cc1)NCC1CCCO1 (centres undefined) @ HNF4A DNA FP: 5.8
C=CCNC(=O)CN1c2cccc3cccc(c23)S1(=O)=O @ MLL AF4-AF9 inh: -0.4

Further records follow.
SMILES	E coli growth	UCH37 DUB inh	Vif A3G	MLL AF4-AF9 inh	RanGTP-Impb inh	HNF4A DNA FP	FGF22 binding
CC(/C=N\NC(=O)Cn1cncn1)=C/c1ccc(C(C)C)cc1	·	·	12%	2.4	4.6	-1.2	i
Cc1ccc(-c2cn3nc(C)c(C)nc3n2)cc1	·	·	1%	·	-0.5	0.2	·
Cc1c(Cl)cccc1NC(=O)C(=O)NNC(=O)c1ccccc1F	0.69	4.7	·	-1.4	-2.9	0.9	i
Nc1nnc(SCC(=O)Nc2cccc3ccccc23)s1	0.54	5.9	·	1.2	2.0	3.2	i
CC1CCc2c(sc(NC(=O)c3nc4ncccn4n3)c2C#N)C1 (centres undefined)	0.73	-79	-5%	-11	-15	1.0	i
O=C(c1ccc(S(=O)(=O)N2CCCCC2)cc1)N1CCN(c2ccccc2)CC1	0.66	2.1	8%	·	0.4	0.5	·
CCOC(=O)c1ccccc1NC(=O)C=C(C)C	0.72	2.0	·	1.9	-3.4	5.7	i
CC1(C)CC(=O)C2=C(C1)OC(N)=C(C#N)C2c1cn(-c2ccccc2)nc1-c1ccc(F)cc1 (centres undefined)	0.71	2.7	9%	3.0	2.0	7.1	i
CCOc1ccc(C(C)NC(=O)Cc2ccccc2F)cc1OCC (centres undefined)	0.7	1.4	10%	-0.7	4.3	-1.1	·
CCOC(=O)C1CCN(Cc2cn[nH]c2-c2ccc(C)cc2)CC1	0.71	1.1	15%	·	3.2	7.1	·
Cc1ccc(C2c3[nH]c4ccccc4c3C[C@H]3C(=O)N(c4ccccc4C(=O)N4CCC[C@@H]4C(=O)O)C(=O)N23)cc1 (some centres undefined)	0.79	2.0	·	-0.5	2.8	-1.2	i
Cc1cc(C)n(CCNC(=O)c2cc(COc3ccc4ncccc4c3)on2)n1	0.67	-0.4	17%	-3.1	1.0	0.8	i
COc1ccc2nc(C)cc(N3CCOCC3)c2c1	0.71	5.6	19%	·	4.3	1.8	·
COC(=O)C1=C(O)/C(=C/c2cccc(OC)c2O)N=C1C	0.65	11	72%	2.9	?	3.9	i
O=C(NCCc1ccc(Cl)cc1)C1CCN(C(=O)c2ccc(F)cc2)CC1	0.63	1.9	·	-3.7	-4.1	2.5	i
CCCN1CCN(CCCNC(=O)c2cc3c(=O)oc4ccc(C)cc4c3s2)CC1	0.67	-18	-2%	-5.8	-0.6	3.5	i
Cc1nc(CCNC(=O)CC2C(=O)NCCN2CC(C)C)nc2c1CCC2 (centres undefined)	0.62	-29	·	-0.2	9.7	-0.5	i
CN(C)C(=O)COC(=O)c1ccccc1OCC(=O)Nc1ccc(SC(F)F)cc1	0.67	3.6	14%	·	4.4	0.2	·
O=C(CS(=O)CC(=O)N(c1ccccc1)C(C(=O)NC1CCCCC1)c1ccco1)Nc1ccc(F)cc1 (centres undefined)	0.72	2.0	11%	-1.8	2.2	-0.7	i
Cc1ccc(NC(=O)COc2ccc(N3CC(C(N)=O)CC3=O)cc2)c(C)c1 (centres undefined)	0.7	0.0	1%	-1.5	-0.9	-0.1	i
C1CCN=C(Nc2nn[nH]n2)CC1	0.73	-0.2	2%	·	-1.5	0.1	·
NS(=O)(=O)c1ccc(N/N=C/c2cn(-c3ccccc3)nc2-c2ccccc2)c([N+](=O)[O-])c1	·	·	?	-3.5	-0.7	1.5	i
Cc1cccc(/C(N)=N/OC(=O)COc2ccccc2Cl)c1	0.65	3.8	1%	0.8	·	-3.0	i
CCN(C(=O)COc1cccc2cccnc12)C1CCS(=O)(=O)C1 (centres undefined)	0.62	-6.1	-9%	-3.6	-0.3	-1.8	i
C/C(=N\Nc1nc(N2CCCCCC2)nc(N2CCCCCC2)n1)c1ccccc1	·	·	6%	·	3.0	-2.0	·
O=C(NNc1cc(C(F)(F)F)nc2ccccc12)Nc1cccc(Cl)c1	0.62	6.9	-10%	-3.6	-2.1	0.6	i
COc1ccccc1NC(=O)Nc1nc(C(N)Cc2ccc(Cl)cc2)cs1 (centres undefined)	·	·	·	5.3	·	0.2	i
CC(OC(=O)C1CC(=O)N(Cc2ccco2)C1)C(=O)Nc1ccccc1[N+](=O)[O-] (centres undefined)	0.68	5.5	-3%	8.5	·	-0.6	i
Cc1ccc(NC(=O)/C(=C\c2ccc([N+](=O)[O-])cc2)NC(=O)c2ccccc2)cc1	0.78	7.0	?	·	1.7	-0.7	·
CC1C(=O)OC(c2ccc(Cl)cc2)C(C)(C)C1=O (centres undefined)	0.68	4.2	2%	-0.3	1.0	-2.6	i
COc1ccccc1Cn1c(CO)nc2ccccc21	0.71	1.1	·	2.0	0.6	3.6	i
CCCCN(C(=O)C1CCCO1)c1c(N)n(CC(C)C)c(=O)[nH]c1=O (centres undefined)	0.65	-0.3	1%	-1.3	4.0	-3.9	i
O=c1c2[nH]c3ccccc3c2ncn1CCN1CCCCC1	0.69	-13	5%	·	-4.4	-1.0	·
O=C(CNS(=O)(=O)c1cccc(C(F)(F)F)c1)NC1CCCCCC1	0.68	0.1	-7%	-2.0	·	-3.0	i
CCOC(=O)C(=O)Nc1nnc(SCc2ccc(F)cc2)s1	0.67	7.1	?	-5.8	7.6	-3.0	i
COC(=O)COc1cccc2c(=O)n(CC(=O)NCCc3ccccc3)ccc12	0.67	-3.0	-14%	-6.5	·	-1.9	i
CC(=O)c1cn(C2OC(CO)C3OC(C)(C)OC32)c(=O)n(C)c1=O (centres undefined)	0.67	0.2	·	0.5	0.1	0.8	i
Cc1ccc(-c2nnc(NCc3nc4ccccc4[nH]3)c3ccccc23)cc1S(=O)(=O)N(C)C	0.73	-21	·	0.5	?	6.4	i
Clc1cc2c(nn1)Nc1ccccc1S2	0.64	1.0	·	-0.4	-1.7	-3.9	i
CCCCNC(=O)C1C(c2ccc(C(F)(F)F)cc2)=Nc2ccccc2N1C(=O)C1CCN(C(C)=O)CC1 (centres undefined)	·	·	·	3.2	·	0.2	i
Cc1ccc(NC(=O)NCCN2CCCCC2)cc1	0.69	4.9	1%	-2.0	-3.0	-0.2	i
O=C(CCN1C(=O)/C(=C/c2ccccc2)SC1=S)NNC(=O)c1ccncc1	0.72	4.5	3%	-0.7	?	-3.2	i
COc1ccc(C(=O)Oc2c(CN3CCOCC3)cc(Cl)c3cccnc23)cc1	0.75	-3.4	34%	·	25*	-0.1	·
Cc1nc(-c2ccccc2)[nH]c(=O)c1Oc1ccc(Cl)cc1Cl	0.67	1.1	3%	1.4	-3.6	2.1	i
O=S(=O)(NC1CCCCC1Oc1ccccc1)c1ccccc1 (centres undefined)	0.69	1.6	3%	2.3	2.7	0.8	i
CCOC(=O)c1[nH]c(C)c(C(=O)OCC(=O)Nc2sc3c(c2C#N)CCCCC3)c1C	0.7	1.2	-9%	-1.0	?	-1.0	·
O=C(COc1cccc(Br)c1)Nc1ccc(N2CCOCC2)cc1N1CCOCC1	0.67	1.7	-13%	0.8	·	3.4	i
O=C(COC(=O)CNC(=O)c1ccc(Cl)cc1Cl)NC(=O)NC1CCCCC1	0.71	-0.8	-4%	-0.8	1.1	5.3	·

Some of these compounds in order of number of heavy atoms, falling:
SMILES	E coli growth	UCH37 DUB inh	Vif A3G	MLL AF4-AF9 inh	RanGTP-Impb inh	HNF4A DNA FP	FGF22 binding
O=C(NCCc1ccc(Cl)cc1)C1CCN(C(=O)c2ccc(F)cc2)CC1	0.63	1.9	·	-3.7	-4.1	2.5	i
CC(C)NC(=O)COC(=O)c1ccc(S(=O)(=O)N2CCCC2)cc1	0.65	2.6	2%	0.2	-0.1	1.9	i
COc1ccc(C(C)NC(=O)c2ccc(Br)cc2)cc1OC (centres undefined)	0.7	3.7	2%	2.3	0.1	1.5	i

This is a subset; the hit share may differ from the screen's.
